Screens (PubChem BioAssay)
TRb-SRC2 inh – disrupts binding of human TR beta to SRC2 | P10828 | TRbeta-SRC2 peptide binding, fluorescence polarization; receptor liganded with 1 µM T3 | Potency, µM (titrated, usually from 106 µM), for the others: at the top dose activity change, negative = inhibition, hits mostly inhibitors | 280,000 tested, 0.065% active | AID 1469;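 also: plate controls were bound peptide for no effect and peptide without receptor for full effect; nearly all actives have a fitted effect of over 50% in size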
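Compounds were added to 0.6 uM TRb ligand-binding domain and 20 nM Texas Red-labeled SRC2 peptide in Tris buffer containing 1 uM T3, incubated 5 hr at ambient temperature, then read by fluorescence polarization.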
KDM4E inh – inhibitors of human JMJD2E histone demethylase. 230,000 tested, 1.6% active. B2RXH2. Potency, µM (series often up to 57.1 µM), for the others: at the top dose activity change, negative = inhibition, most hits filed as inhibitors. AID 2147. JMJD2E catalytic domain, FDH-coupled NADH fluorescence (FDH is formaldehyde dehydrogenase); active = well fitted inhibition curve with a large enough effect, not every such curve was filed as active; inconclusive = small, poorly fitted or top-dose-only effect, or another doubt; inactive = no such curve, though single readings can be large or run the other way;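 also: 0% = wells with enzyme and -100% = buffer wells without enzyme; nearly all actives have a fitted effect of over 50% in size; many of its hits are not listed in these tables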
Target sequence (B2RXH2 1-337 limits assumed): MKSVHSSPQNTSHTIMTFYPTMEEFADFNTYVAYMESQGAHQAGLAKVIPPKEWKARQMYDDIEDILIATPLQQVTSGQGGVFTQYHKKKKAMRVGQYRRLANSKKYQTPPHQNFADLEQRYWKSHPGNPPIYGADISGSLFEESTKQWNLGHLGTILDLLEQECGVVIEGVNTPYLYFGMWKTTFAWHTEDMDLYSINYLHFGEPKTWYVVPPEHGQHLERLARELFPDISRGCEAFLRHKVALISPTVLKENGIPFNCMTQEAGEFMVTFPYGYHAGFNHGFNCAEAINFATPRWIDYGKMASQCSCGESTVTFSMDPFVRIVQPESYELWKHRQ
RECQ1 inh – RECQ1 (human) helicase inhibition; P46063; AID 2549; 240,000 tested, 0.54% active; RECQ1 DNA unwinding, red fluorescence kinetic read; Potency, µM (doses to about 57.3 µM), for inactives: at the highest dose activity, negative = inhibition, most hits filed as inhibitors;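 also: plate controls were vehicle for no effect and no enzyme for full effect; nearly all actives have a fitted effect of over 30% in size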
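RECQ1T1 50 nM; forked duplex (20 bp + 30-nt ss tails) 200 nM, ATP 2 mM final; pH 8.0, 2 mM MgCl2, 2.5 ug/ml poly(dI-dC); 15 min compound preincubation; discontinuous kinetic read over 2 h at RT.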
GoLoco inh red – RGS12 GoLoco-Gai1 interaction inhibition; AID 880; Gai1:RGS12 GoLoco peptide FP, rhodamine, 10 min; Potency, µM (titrated, usually from 61.6 µM), inactives show at the top dose activity, negative = inhibition, usual class: inhibitors; P63096; 230,000 tested, 0.44% active; active = well fitted inhibition curve with a large enough effect, not every such curve was filed as active; inactive = no such curve, though single readings can be large or run the other way; also: % is scaled to controls: 0 for no effect and ±100 for the full control effect; nearly all actives have a fitted effect of over 30% in size; many of its hits are not listed in these tables
Target sequence (P63096 whole entry, looked up): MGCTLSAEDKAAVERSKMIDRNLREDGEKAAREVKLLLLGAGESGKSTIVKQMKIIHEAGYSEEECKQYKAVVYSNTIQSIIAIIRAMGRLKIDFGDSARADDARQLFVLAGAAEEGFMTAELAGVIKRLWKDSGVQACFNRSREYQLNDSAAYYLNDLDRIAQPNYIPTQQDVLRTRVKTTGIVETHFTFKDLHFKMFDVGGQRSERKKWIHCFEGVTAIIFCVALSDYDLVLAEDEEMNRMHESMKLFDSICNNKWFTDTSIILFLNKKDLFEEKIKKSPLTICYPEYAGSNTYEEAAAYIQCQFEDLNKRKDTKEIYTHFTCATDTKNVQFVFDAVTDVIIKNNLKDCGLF
Lamin A splicing – LMNA splicing modulation. HeLa LMNA splicing GFP/RFP minigene ratio, 48 h. Potency, µM (series often up to 46.1 µM), without a hit: at the highest dose ratio change, negative = inhibition, hits mostly inhibitors. 200,000 tested, 0.01% active; active = well fitted inhibition curve with a large enough effect in the signal ratio, with a control signal flat, not every such curve was filed as active; inconclusive = small, poorly fitted or top-dose-only effect, or effect the other way, or a change in a side signal; the % refers to the signal ratio; also: % is scaled to controls: 0 for no effect and ±100 for the full control effect
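Read-out is the ratio of GFP to DsRed2 object intensity, acquired by 488 nm laser-scanning cytometry on HeLa lamin A-EGFP minigene reporter cells. Compound incubation 48 hrs at 37 °C in Opti-MEM with 2% FBS; DMSO 0.5% final.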
TR SRC2 fluor cs – counter-screen for TRb-SRC2 inhibitors: fluorescence interference; Potency, µM (doses to about 106 µM), without a hit: at the highest dose fluorescence change, negative = quenching; 280,000 tested, 0.29% active; TRb/SRC2 Texas Red total fluorescence interference; AID 1479; active = well fitted curve in either direction with a large enough effect; inconclusive = small, poorly fitted or top-dose-only effect; also: % is scaled to controls: 0 for no effect and ±100 for the full control effect
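Human TRb ligand-binding domain at 0.6 uM with 20 nM Texas Red SRC2 peptide in Tris buffer containing 1 uM T3 and 5% DMSO, incubated with compound 5 h at ambient temperature. Total fluorescence (555/632 nm) calculated as parallel + 2 × perpendicular.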
SMN2 splice enh – increases expression of the SMN2 splice variant. HEK293 SMN2-luciferase splicing reporter, luminescence, 30-36 h. Potency, µM (titrated, usually from 46.1 µM), inactives show at the highest dose activity change, positive = activation, usual class: activators. 210,000 tested, 2.8% active. AID 1458; also: % of control where 0% means no effect; nearly all actives have a fitted effect of over 55% in size
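qHTS luciferase splicing reporter: luminescence rises when SMN2 exon 7 is included in transfected HEK293 cells. Compound exposure lasted 30-36 h at 37C, with 4.5 mM final sodium butyrate as control, followed by a ONE-Glo read.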
* hit, by the source's call; i = inactive; ? = inconclusive; / = no result given; [ ] = dose if it differs, or a comment. Unless noted, calls follow the shape of the dose curve; as a rule, active = well fitted curve in the direction sought with a large enough effect; inconclusive = small, poorly fitted or top-dose-only effect, or another doubt; inactive = no such curve, though single readings can be large; an effect the other way counts as inactive or inconclusive. Potency is read from the fitted curve at half-maximal effect.

SMILES | TRb-SRC2 inh | KDM4E inh | RECQ1 inh | GoLoco inh red | Lamin A splicing | TR SRC2 fluor cs | SMN2 splice enh
Cc1ccc(S(=O)(=O)OC2CCN(C)CC2)cc1 | / | / | / | 0%[14.2 µM] | / | / | 2%[9.22 µM]
O=S1(=O)CCN(Cc2cccc(C(F)(F)F)c2)CC1 | 1% | -9% | -14% | -8% | ? | 0% | -4%
CC(C)Cn1cnc2sc3c(c2c1=N)CCCC3 | 4% | -10% | i | 34%[activator] | 1% | 2% | 1%
Cc1ccccc1CSc1nc2[nH]ncc2c(=O)[nH]1 | 4% | 7% | i | 7% | -17%[46 µM] | -5% | 0%
Nc1nonc1-c1noc(-c2ccc(Br)o2)n1 | -4% | 8% | -6% | 4% | 2%[0.0737 µM] | 0% | 9%
O=C1Nc2ccccc2C1(c1ccccc1)c1ccccc1 | 7% | -1% | i | 2% | ? | 1% | -2%
CS(=O)(=O)NCCC1=CCCCC1 | 4% | -13% | 3% | -11% | 2% | 2% | 29%
CNC(=S)NNC(=O)c1cccn(Cc2ccccc2)c1=O | 3% | -18% | i | 4% | / | 0% | 22%
COc1cc(/C=C2/SC(=S)NC2=O)ccc1OS(=O)(=O)c1ccc(C)cc1 | 17% | 3% | -27% | 27% | ? | -5% | -31%[inhibitor]
Cc1cnc(NC(=O)c2cc3ccccc3o2)s1 | -10% | ? | -4% | 1% | -7%[46 µM] | 0% | 2.2µM*
c1ccc(Nc2cccc(Nc3ccccc3)n2)cc1 | 4% | ? | -6% | 16% | 13% | 2% | -22%
Cc1cccc(C(=O)N2CCC(c3nc4ccccc4s3)CC2)c1 | 4% | -10% | -6% | -4% | ? | 0% | /
O=C(COc1cccnc1[N+](=O)[O-])NCCc1ccc(Cl)cc1Cl | -4% | -1% | i | -2% | -22%[46 µM] | 1% | -17%
COc1cc(NC(=O)COC(=O)CCc2cc(OC)c(OC)c(OC)c2)cc(OC)c1 | -2% | -3% | i | -24% | / | -4% | 6%
CC(=O)c1c(C)[nH]c(C(=O)OCC(=O)Nc2ccc([N+](=O)[O-])cc2Cl)c1C | -6% | 4% | -3% | 11% | 4% | 2% | -7%
Cc1cc(C)n(CC(C)NCc2cn[nH]c2-c2cccc3ccccc23)n1 (stereo not given) | -5% | -9% | -8% | -10% | ? | 1% | /
O=C(CS(=O)(=O)c1cn(Cc2ccc(Cl)cc2)c2ccccc12)N1CCCC1 | -1% | 0% | -12% | -3% | -14% | -3% | -16%
CCCCOC(=O)CSc1nc2c(cc1C#N)C(=O)CC(C)(C)C2 | 0% | 9% | 1% | 8% | -8% | -4% | 7%
CCOC(=O)C1=C(C(=O)OCC)C(C(=O)OCC)N(S(=O)(=O)C(F)(F)F)c2ccccc21 (stereo not given) | 2% | / | 0% | 7% | / | -6% | /
O=C(CN(c1ccc(F)cc1)S(=O)(=O)c1ccc2c(c1)OCCO2)N1CCOCC1 | -9% | -1% | -1% | 2% | -9% | -2% | -1%
COc1cc(S(=O)(=O)N(Cc2ccccn2)Cc2ccccc2Cl)ccc1-n1cnnn1 | -5% | 11% | 0% | 0% | -5% | -1% | -12%
CCc1nnc(NC(=O)C=C(C)C)s1 | 3% | 7% | -2% | 10% | -4% | 1% | 10µM*
COc1ccc(OCC(=O)Nc2ccc(S(=O)(=O)N3CCN(C)CC3)cc2)cc1 | -1% | ? | 0% | 28% | -4%[46 µM] | ? | /
CC(C)NC(=O)NC(=O)COc1cccc2c1OC(C)(C)C2 | -3% | -2% | i | 6% | -2% | 2% | 0%
O=[N+]([O-])c1ccc(NNC(=S)Nc2ccccc2)cc1 | 6% | -4% | -8% | 7% | ? | -1% | -38%[inhibitor]

Next structures follow.
SMILES | TRb-SRC2 inh | KDM4E inh | RECQ1 inh | GoLoco inh red | Lamin A splicing | TR SRC2 fluor cs | SMN2 splice enh
COc1cccc(-n2nnc3c(=O)n(C/C=C/c4ccccc4)cnc32)c1 | -5% | -4% | 0% | -4% | 4% | -4% | -15%
CCOCCc1c(O)nc(SC)[nH]c1=O | 3% | 4% | i | 5% | 2%[46 µM] | 1% | /
C=CCc1ccccc1OCC(O)CN1CCN(c2ccccc2F)CC1 (stereo not given) | 2% | 3% | i | -8% | 5% | 1% | -7%
O=C(CN1CCN(c2ccccc2O)CC1)NC(=O)NC1CCCC1 | -2% | -14% | -14% | 7% | -16%[46 µM] | -3% | -12%
CCOC(=O)Cc1nn(Cc2nc(-c3ccc(C#N)cc3)cs2)c(=O)c2ccccc12 | 1% | -7% | i | 1% | / | 1% | /
COc1ccc(NC(=O)c2cc(Br)ccc2Cl)c([N+](=O)[O-])c1 | 0% | -1% | i | -4% | -7%[46 µM] | -2% | -10%
COCC(=O)N(c1ccc(C(C)C)cc1)C1C=CS(=O)(=O)C1 (stereo not given) | 1% | 5% | -10% | 1% | 7% | 0% | -14%
O=C(NCc1ccccc1)c1ccccc1CO | -4% | -2% | -5% | 4% | ? | 0% | 7%
CCOC(=O)C1=C(C)NC(=O)NC1c1ccc(Cl)cc1Cl (stereo not given) | -9% | 8% | -12% | 0% | -5% | -1% | -19%
Cc1nn(C)c(C(=O)Nc2ccc(Cl)c([N+](=O)[O-])c2)c1Cl | 3% | -5% | 10% | 10% | ? | 0% | 7%
C/C(=N/O)c1cc(C(C)(C)C)c(O)c(C(C)(C)C)c1 | 4% | -3% | i | 0% | -1% | -1% | -45%[inhibitor]
CN(C)Cc1ccccc1Sc1ccc(O)cc1O | -4% | -2% | 3% | 5% | -2% | -7% | -7%
Cn1c(CSc2ncccn2)nnc1SCC(=O)N1CCCCCC1 | -4%[53 µM] | 15% | i | 2% | 14%[46 µM] | 0%[53 µM] | /
O=C(CC(C(=O)N1CCc2ccccc21)n1ccnc1)NCC1CCCO1 (stereo not given) | -1% | 0% | -11% | -13% | -2% | -5% | 2%
O=C(CNC(=O)C12CC3CC(CC(C3)C1)C2)OCc1cc(=O)n2cc(Br)ccc2n1 | 2% | ? | 0% | 13% | ? | -4% | -3%
COC(=O)c1cccn(CC(=O)c2ccc(Cl)cc2)c1=O | 0% | ? | i | 9% | -11%[46 µM] | -1% | -3%
Cc1csc(NC(=O)c2nn(C)c(C)c2[N+](=O)[O-])n1 | 0% | -11% | -3% | 8% | 18% | -3% | 40%
Cn1ncc2nnn(-c3ccccc3)c(=O)c21 | -2% | 12% | -14% | -1% | -4% | -4% | 10%
CCOC(=O)c1cnc(SCC(=O)Nc2nnc(CC)s2)nc1N | -7% | -1% | -4% | / | -2% | 0% | /
Cc1ccc(N/C=C/C(=O)c2ccccc2)cc1C | 0% | 7% | -6% | 7% | ? | -1% | 2.5µM*
O=C(CCCc1ccccc1)NCCCN1CCOCC1 | -10% | 4% | -4% | / | 2% | -1% | /
Cc1cc(C)cc(NC(=O)c2cc(Cl)sc2Cl)c1 | 3% | ? | -9% | -1% | -7% | -1% | 2%
Cc1ccc2c(c1)C1NC(=S)NC(C)(O2)C1C(=O)Nc1ccc(Cl)cc1 (stereo not given) | 5% | 5% | 0% | 7% | ? | 6% | -5%
CCN(CC)c1ccc(/C=N/Nc2nc(C)cc(=O)[nH]2)c(O)c1 | -8% | ? | 1% | 2% | ? | -2% | -97%[inhibitor]
OCC1OC(c2ccccc2)C=CC1Oc1cc(Cl)cc(Cl)c1 (stereo not given) | 4%[11.2 µM] | / | 5%[11.5 µM] | / | / | -4%[11.2 µM] | /

Shown with values under each structure: 6 of the compounds above.
Sequence of screens – TRb-SRC2 inh | KDM4E inh | RECQ1 inh | GoLoco inh red | Lamin A splicing | TR SRC2 fluor cs | SMN2 splice enh
> O=C(CCCc1ccccc1)NCCCN1CCOCC1
    -10% | 4% | -4% | / | 2% | -1% | /
> C=CCc1ccccc1OCC(O)CN1CCN(c2ccccc2F)CC1 (stereo not given)
    2% | 3% | i | -8% | 5% | 1% | -7%
> OCC1OC(c2ccccc2)C=CC1Oc1cc(Cl)cc(Cl)c1 (stereo not given)
    4%[11.2 µM] | / | 5%[11.5 µM] | / | / | -4%[11.2 µM] | /
> O=C(NCc1ccccc1)c1ccccc1CO
    -4% | -2% | -5% | 4% | ? | 0% | 7%
> COC(=O)c1cccn(CC(=O)c2ccc(Cl)cc2)c1=O
    0% | ? | i | 9% | -11%[46 µM] | -1% | -3%
> CCOC(=O)C1=C(C)NC(=O)NC1c1ccc(Cl)cc1Cl (stereo not given)
    -9% | 8% | -12% | 0% | -5% | -1% | -19%

The list goes on.
SMILES | TRb-SRC2 inh | KDM4E inh | RECQ1 inh | GoLoco inh red | Lamin A splicing | TR SRC2 fluor cs | SMN2 splice enh
O=C1c2cccc3cccc(c23)N1CN1CCN(c2ccccn2)CC1 | -2% | ? | -7% | 2% | 15% | -4% | 13%
O=C(NNC1CC(=O)N(c2ccccc2)C1=O)c1ccco1 (stereo not given) | 4% | -2% | i | 6% | -4%[46 µM] | -3% | -5%
CCC(C)N(C(=O)Cn1nnc2ccccc21)C(C(=O)Nc1ccc(F)cc1)c1cccc(OC)c1 (stereo not given) | -3% | -6% | -8% | -7% | 10% | -1% | 0%
O=C(Cn1c(=O)n(Cc2ccc3c(c2)OCO3)c(=O)c2ccccc21)N1CCCc2ccccc21 | -7% | 7% | 0% | 17% | -4% | 1% | -15%
CCOC(=O)C1CCCN(C(=S)Nc2cccc(Cl)c2)C1 (stereo not given) | 0% | -5% | -3% | 3% | ? | -9% | -30%[inhibitor]
O=C(NNC(=O)c1ccccc1[N+](=O)[O-])Nc1ccccc1C(F)(F)F | -1% | 7% | -2% | 2% | / | 3% | 3%
Cn1c(O)c(N=NC(=O)c2cccc(S(=O)(=O)N3CCCCC3)c2)c2ccccc21 | 3% | 7% | -12% | 0% | ? | -2% | -21%
Cc1cc(OC(=O)c2ccccc2)c([N+](=O)[O-])c(=O)[nH]1 | -3% | 2% | -17% | 14% | / | 0% | -6%
O=C(Nc1ccccc1)Nc1nnc(Cc2ccc([N+](=O)[O-])cc2)s1 | 0% | -1% | i | 11% | ? | -6% | -22%
O=C(NCCOc1ccc(Cl)cc1)C(=O)NCC1CCCO1 (stereo not given) | -3% | -2% | -5% | 15% | -6%[46 µM] | -2% | /
O=c1c(-c2ccc(F)cc2)coc2c3c(ccc12)OCCO3 | -18% | -1% | i | 8% | -1% | 0% | ?
CCOC(=O)/C(N=Nc1cc(C(=O)O)cc(C(=O)O)c1)=C(\O)CCl | -1% | -1% | 3% | 2% | -11% | -1% | 19%[1.84 µM]

These rows are one share of the data; the hit share may differ from the screen's.
